High-throughput results as filed in PubChem.
Tau fibril FP – qHTS for Inhibitors of Tau Fibril Formation, Fluorescence Polarization; Microtubule-associated protein tau (Homo sapiens), P10636; Potency, µM (doses to about 57.7 µM), for inactives: at the highest dose activity, negative = inhibition, usual class: inhibitors; AID 1468, 2008; 0.39% of 280,000 active; K18 P301L tau heparin fibrillization, Alexa594 FP, 6 h; also: nearly all actives have a fitted effect of over 55% in size
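Heparin (20 uM) drove fibril formation of recombinant tau K18 P301L, 15 uM unlabeled with 0.24 uM Alexa 594 label, for 6 hr at 37 C in 100 mM sodium acetate pH 7. Fluorescence polarization (555/632 nm) read 1 hr after 30 uM ThT.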
KDM4E inh – qHTS Assay for Inhibitors of Human Jumonji Domain Containing 2E (JMJD2E); Lysine-specific demethylase 4E (Homo sapiens), B2RXH2; JMJD2E catalytic domain, FDH-coupled NADH fluorescence (FDH is formaldehyde dehydrogenase); Potency, µM (highest dose often 57.1 µM), without a hit: at the top dose activity change, negative = inhibition, most hits filed as inhibitors; 1.6% of 230,000 active; active = well fitted inhibition curve with a large enough effect, not every such curve was filed as active; inconclusive = small, poorly fitted or top-dose-only effect, or another doubt; inactive = no such curve, though single readings can be large or run the other way;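 also: 0% = wells with enzyme and -100% = buffer wells without enzyme; nearly all actives have a fitted effect of over 50% in size; many of its hits are not listed in these tables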
Target sequence (B2RXH2 1-337 limits assumed): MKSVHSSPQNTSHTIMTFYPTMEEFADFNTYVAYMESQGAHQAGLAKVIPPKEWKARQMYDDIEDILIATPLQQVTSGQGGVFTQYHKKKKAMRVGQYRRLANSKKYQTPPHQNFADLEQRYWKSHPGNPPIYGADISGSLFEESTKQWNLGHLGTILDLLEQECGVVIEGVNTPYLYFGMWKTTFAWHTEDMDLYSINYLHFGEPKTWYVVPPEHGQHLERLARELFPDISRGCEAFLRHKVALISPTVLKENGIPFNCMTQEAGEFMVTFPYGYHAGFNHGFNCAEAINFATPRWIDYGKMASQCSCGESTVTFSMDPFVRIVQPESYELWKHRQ
Tau fibril ThT – qHTS for Inhibitors of Tau Fibril Formation, Thioflavin T Binding; Microtubule-associated protein tau (Homo sapiens), P10636; recombinant tau K18 P301L, heparin-induced fibrillization, ThT fluorescence; Potency, µM (top dose mostly 57.4 µM), for inactives: at the top dose activity, negative = inhibition, hits mostly inhibitors; 2.1% of 270,000 active; AID 1460, 2008; also: nearly all actives have a fitted effect of over 55% in size
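Heparin-induced fibrillization of the P301L-mutant K18 repeat-domain fragment of human tau was followed by ThT binding in quantitative high-throughput format.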
Tau fluor cs – Counterscreen qHTS for Inhibitors of Tau Fibril Formation, Fluorescence Polarization; tau K18 P301L Alexa594 fluorescence, heparin fibrillization; Potency, µM (titrated, usually from 57.7 µM), for the others: at the highest dose activity change, negative = decrease; 0.93% of 280,000 active; AID 1463, 2008; also: nearly all actives have a fitted effect of over 55% in size
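Human tau K18 P301L (15 uM unlabeled, 0.24 uM Alexa 594-labeled) in 100 mM sodium acetate pH 7 with 20 uM heparin, 6 hr at 37 C. ThT 30 uM added, 1 hr ambient; Alexa 594 FP and total fluorescence read at 555/632 nm.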
Numbers without * were called inactive; ? = inconclusive; & = joins results of further samples. Unless noted, calls follow the shape of the dose curve; as a rule, active = well fitted curve in the direction sought with a large enough effect; inconclusive = small, poorly fitted or top-dose-only effect, or another doubt; inactive = no such curve, though single readings can be large; an effect the other way counts as inactive or inconclusive. Unless noted, % is scaled to controls: 0 for no effect and ±100 for the full control effect; potency is read from the fitted curve at half-maximal effect. These rows are one share of the data (hit frequency here may not be typical).

Codes: A = Tau fibril FP; B = KDM4E inh; C = Tau fibril ThT; D = Tau fluor cs
> CC(C)[N+]1(C)[C@@H]2CC[C@H]1CC(OC(=O)C(CO)c1ccccc1)C2 (stereo not given in full)
  A = -6%	B = 3%	C = -7%	D = -9%

> CCOc1ccc(-c2cc(C(=O)N3CCN(c4ccccn4)CC3)c3ccccc3n2)cc1
  A = 1%	B = ?	C = -14%	D = -17%

> S=c1nc(-c2cccc(Br)c2)[nH][nH]1
  A = 2%	B = 15%	C = 2%	D = 0%

> COC(=O)c1sccc1NC(=O)Nc1ccc(Cl)c(Cl)c1
  A = ?	B = ?	C = ?	D = -23%

> C[C@]12C[C@H](O)[C@H]3[C@@H](CCC4=CC(=O)CC[C@@]43C)[C@@H]1CC[C@@H]2C(=O)CO
  A = 1%	B = -28%	C = -12%	D = -4%

> COCCCC/C(=N\OCCN)c1ccc(C(F)(F)F)cc1
  A = -4%&0%&1%&5%&6%	B = -1%&0%&1%&-6%	C = 4%&-2%&0%&-12%&9%	D = -5%&-5%&-3%&-18%&20%

> Cc1cnc(C(=O)NCCc2ccc(S(=O)(=O)NC(=O)NC3CCCCC3)cc2)cn1
  A = ?	B = 5%	C = -11%&-2%&-3%&-1%	D = -6%&-8%&-3%&7%

> c1ccc(-c2noc(-c3ccncc3)n2)nc1
  A = 0%	B = 6%	C = -2%	D = -2%

> CN(C)CCN(Cc1cccs1)c1ccccn1
  A = -5%&-5%&-6%	B = ?	C = -7%&3%&-19%	D = -10%&-3%&-17%

> CC(=O)OCC(=O)[C@@]1(O)CC[C@H]2[C@@H]3CCC4=CC(=O)C=C[C@]4(C)[C@H]3[C@@H](O)C[C@@]21C
  A = -3%	B = 10%	C = -12%	D = -14%

> CCN(CC)C(=S)SSC(=S)N(CC)CC
  A = ?	B = 3%	C = ?	D = ?

Five entries from above, comma-delimited.
compound,Tau fibril FP,KDM4E inh,Tau fibril ThT,Tau fluor cs
CC(C)[N+]1(C)[C@@H]2CC[C@H]1CC(OC(=O)C(CO)c1ccccc1)C2 (stereo not given in full),-6%,3%,-7%,-9%
COCCCC/C(=N\OCCN)c1ccc(C(F)(F)F)cc1,-4%&0%&1%&5%&6%,-1%&0%&1%&-6%,4%&-2%&0%&-12%&9%,-5%&-5%&-3%&-18%&20%
CCOc1ccc(-c2cc(C(=O)N3CCN(c4ccccn4)CC3)c3ccccc3n2)cc1,1%,?,-14%,-17%
CC(=O)OCC(=O)[C@@]1(O)CC[C@H]2[C@@H]3CCC4=CC(=O)C=C[C@]4(C)[C@H]3[C@@H](O)C[C@@]21C,-3%,10%,-12%,-14%
Cc1cnc(C(=O)NCCc2ccc(S(=O)(=O)NC(=O)NC3CCCCC3)cc2)cn1,?,5%,-11%&-2%&-3%&-1%,-6%&-8%&-3%&7%

An excerpt from above, showing only Tau fibril FP, KDM4E inh and Tau fibril ThT:
Structure,Tau fibril FP,KDM4E inh,Tau fibril ThT
Cc1cnc(C(=O)NCCc2ccc(S(=O)(=O)NC(=O)NC3CCCCC3)cc2)cn1,?,5%,-11%&-2%&-3%&-1%
c1ccc(-c2noc(-c3ccncc3)n2)nc1,0%,6%,-2%
